Bioassay records from PubChem.
Insulin prom inh: TRM-6 insulin promoter activity inhibition; TRM-6 cells (human fetal islet line), insulin promoter-eGFP reporter, imaging; reporter expression induced with tamoxifen; inhibition, % at 2 µM; hit rate 0.9% among 130,000; AID 1273;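 active = inhibition above the mean plus 3 SD, with well images judged a real hit on visual review, cut at about 60% in these data, passing the limit was not always enough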
RGS16-Gao: modulates binding between human RGS16 and Galphao | binding response (% of control), % at 10 µM | O15492+P09471 | hit rate 0.38% among 220,000 | bead-based flow cytometry RGS16-Galphao binding, fluorescence; actives lie on both sides;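 active = below 25% or above 175%, edge rows of some plates excepted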;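 note: Galphao activated by GDP with aluminum fluoride before binding; 100% = wells without compound and 0% = beads without RGS; some results beyond the cut were filed as inactive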
Target sequence (O15492 whole entry, looked up): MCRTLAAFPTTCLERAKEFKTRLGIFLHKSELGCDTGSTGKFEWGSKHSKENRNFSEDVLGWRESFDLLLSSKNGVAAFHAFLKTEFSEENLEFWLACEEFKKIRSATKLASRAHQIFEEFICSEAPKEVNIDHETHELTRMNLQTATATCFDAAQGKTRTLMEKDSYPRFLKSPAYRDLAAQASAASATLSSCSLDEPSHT
Target sequence (P09471 whole entry, looked up): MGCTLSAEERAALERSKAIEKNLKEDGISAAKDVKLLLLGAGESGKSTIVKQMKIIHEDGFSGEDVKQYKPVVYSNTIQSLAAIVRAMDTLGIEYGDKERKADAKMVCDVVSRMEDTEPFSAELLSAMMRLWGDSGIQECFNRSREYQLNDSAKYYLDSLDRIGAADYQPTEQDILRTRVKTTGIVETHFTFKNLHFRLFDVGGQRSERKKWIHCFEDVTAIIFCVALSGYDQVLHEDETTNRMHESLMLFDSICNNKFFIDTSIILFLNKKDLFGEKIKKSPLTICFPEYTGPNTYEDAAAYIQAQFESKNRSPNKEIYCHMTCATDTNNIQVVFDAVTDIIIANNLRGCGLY
PKD1 kinase inh: blocks activity of human protein kinase D1 | Q15139 | hit rate 0.056% among 200,000 | inhibition, %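 (about 10 µM by stock and volumes)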 | PKD1 kinase fluorescence polarization assay;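 active = inhibition of 50% or more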;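 note: controls were vehicle for no effect and a reference inhibitor for full effect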
HSV replic up: increases HSV replication in cells; AID 1956; HSV replication augmentation in cells, fold increase; maximum fold increase; hit rate 0.005% among 220,000;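 active = peak rise of 1.5-fold or more in the series; tested in PC3 cells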;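 note: first round at 10 µM; read as green reporter fluorescence; hits show the peak of a series up to 25 µM; 1 = signal of infected wells without compound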
GALR2 agonist: agonists of human galanin receptor 2 (GALR2). O43603. AID 803. activation, %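 (tested at 5 µM)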. GALR2-expressing cells, agonist activation read-out. hit rate 0.48% among 140,000;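 active = above mean plus 3 SD of all compounds, about 5% in these data, not always enough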;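 note: 0% = vehicle buffer wells and 100% = reference agonist at full effect; tested in CHO reporter cells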
Target sequence (O43603 whole entry, looked up): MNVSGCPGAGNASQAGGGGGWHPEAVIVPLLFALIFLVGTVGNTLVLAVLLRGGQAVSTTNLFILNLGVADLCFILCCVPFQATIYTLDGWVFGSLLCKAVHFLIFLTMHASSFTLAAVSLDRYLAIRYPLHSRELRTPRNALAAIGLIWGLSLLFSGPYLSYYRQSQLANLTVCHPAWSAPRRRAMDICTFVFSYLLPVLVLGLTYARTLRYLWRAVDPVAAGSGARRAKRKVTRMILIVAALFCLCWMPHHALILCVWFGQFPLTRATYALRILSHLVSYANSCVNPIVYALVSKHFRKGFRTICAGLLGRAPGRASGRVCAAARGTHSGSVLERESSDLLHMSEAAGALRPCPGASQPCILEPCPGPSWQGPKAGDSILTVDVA
Insulin prom inh cell count: second read-out of Insulin prom inh, no call of its own (marks repeat the call); normalized cell count, %; measured here: cell count, toxicity; reference of the scale not given here;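 cells exposed to compound for 48 h; stained nuclei by imaging scaled within each plate; lower means fewer cells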
HSV replic up primary fold: further read-out of HSV replic up, marked with its call; fold increase; compound at 10 µM; measured here: primary screen fold increase 10 uM; tested in PC3 cells;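 GFP signal in the first replicate; 1 = infected wells without compound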
* hit, by the source's call; i = inactive; / = not tested or not shown. Not a hit list. Share with any hit: about 1.2%.

Below each SMILES – HSV replic up	PKD1 kinase inh	HSV replic up primary fold	Insulin prom inh cell count	RGS16-Gao	GALR2 agonist	Insulin prom inh
[1] CCCCOC(=O)Oc1ccc2c(=O)c(Oc3cccc(C)c3)coc2c1
  i	-5	1	/	94	-1.0	/
[2] COc1ccc(CC(=O)NCC(=O)N/N=C/c2ccco2)cc1
  i	2	1.1	/	96	-0.9	/
[3] Cn1c(=O)[nH]c(=O)c2c1nc(N1CCCCCC1)n2CC(N)=O
  i	0	0.87	79	94	-3.6	56
[4] COc1ccnc(Oc2cccc(C(F)(F)F)c2)c1C(=O)N/C=N/OCc1ccccc1F
  i	3	0.97	/	101	/	/
[5] CCN(CC)CCCN(Cc1cc2cc3c(cc2[nH]c1=O)OCCO3)C(=O)Nc1ccc(F)cc1
  i	-4	0.97	60	92	0.6	50
[6] c1ccc(CN=C2NN=C(c3ccccc3)CS2)cc1
  i	1	0.93	/	92	/	/
[7] S=C(NCCC(c1ccccc1)c1ccccc1)Nc1ccccc1Cl
  i	-3	0.68	1	96	-0.1	-158
[8] Cc1cccc(C)c1N(CC(=O)NN=C1CCCCCC1)S(C)(=O)=O
  i	-12	0.86	94	103	-0.1	25
[9] Cn1c(=O)c2c(nc(CO)n2C)n(C)c1=O
  i	7	0.94	83	100	/	14
[10] COc1cccc(/C(=N/O)C2CC2c2ccc(Cl)cc2)c1 (stereo unspecified)
  i	4	0.96	100	105	/	6
[11] O=C(c1cccc(OCc2ccccc2)c1)N1CCOCC1
  i	0	1	/	100	/	/
[12] CCOC(=O)n1ccc(C(=O)Nc2ccccc2F)n1
  i	5	1	/	101	-1.0	/
[13] OCCN1CCN(C(=S)Nc2ccc(SC(F)F)cc2)CC1
  i	-6	0.91	121	102	/	29
[14] Cc1nnc2sc(SCC(=O)Nc3ccc(Br)cc3)nn2c1=O
  i	-3	0.84	148	101	/	67
[15] CCn1nnnc1SCC(=O)c1ccc(C)cc1C
  i	-8	0.99	138	88	-2.1	53
[16] CCN(CC)C(=O)c1sc(NC(=O)c2ccc(C)c([N+](=O)[O-])c2)c(C#N)c1C
  i	-6	1	/	104	-0.5	/
[17] CC(=O)SCC(C)C(=O)NCc1ccccc1 (stereo unspecified)
  i	-4	0.89	134	101	0.7	19
[18] O=[N+]([O-])c1cccc(/C=N\N=C2c3ccccc3-c3ccccc32)c1O
  i	-10	0.99	67	110	-2.5	11
[19] COc1cccc(Oc2ccc(C(F)(F)F)cc2NC(=O)c2cccc(F)c2)c1
  i	7	1.1	129	47	-0.2	-17
[20] CCOC(=O)c1sc(NC(=O)CSc2nc(-c3ccco3)cc(C(F)(F)F)n2)c(C(=O)OC(C)C)c1C
  /	2	/	104	/	-3.9	30
[21] O=C(O)c1ccc(N=Cc2c(O)ccc3oc4c(c23)CCCC4)cc1
  i	/	1.3	/	99	/	/
[22] Cn1ncc(Cl)c1C(=O)NCc1ccco1
  i	4	1.1	/	99	/	/
[23] CCOC(=O)c1cc(-c2cccc([N+](=O)[O-])c2)n[nH]1
  i	0	0.83	/	94	/	/
[24] CCOC(=O)C1(Cc2ccccc2)CCN(C2Cc3ccccc3C2)CC1
  i	0	0.96	/	104	/	/
[25] Cc1c(C(=O)N(C)C)sc(NC(=O)c2cccc([N+](=O)[O-])c2)c1C#N
  i	-1	1	85	102	-1.7	31
[26] CCOc1ccc(NC2OC(CO)C(O)C(O)C2O)c([N+](=O)[O-])c1 (stereo unspecified)
  i	-4	1.1	/	101	/	/
[27] CSCCC(NC(=O)c1cc(C(C)(C)C)oc1C)C(=O)O (stereo unspecified)
  i	3	0.77	122	100	-0.2	-21
[28] Nc1[nH]c(=O)[nH]c(=O)c1N=Nc1cccc(Cl)c1
  i	-1	0.78	/	96	/	/
[29] COc1ccc(OC)c(NC(=O)c2cc3n(n2)C(C(F)(F)F)CC(c2ccc4c(c2)OCO4)N3)c1 (stereo unspecified)
  i	-5	0.79	/	/	-2.1	/
[30] O=C(CN1CCN(c2ccc(F)cc2)CC1)c1cccs1
  i	8	1.1	/	103	/	/
[31] CN(Cc1ccccc1)Cc1nc2c(c(=O)n(C)c(=O)n2C)n1Cc1ccc(Cl)cc1
  i	6	0.96	/	92	-0.7	/
[32] CCOC(=O)c1c(C)nc2sc3c(=O)n(-c4ccc(C(C)=O)cc4)nnc3c2c1-c1ccc(OC)cc1
  i	-4	1	131	95	-0.5	-8
[33] O=C(O)c1ccc(CS(=O)(=O)Cc2ccccc2F)o1
  i	-6	0.96	94	107	-1.2	33
[34] O=C(O)/C=C/C(=O)Nc1ccccc1C(=O)Nc1ccccc1
  i	-3	0.92	136	97	-1.9	13
[35] O=C(Nc1ccc(N2CCOCC2)cc1)C1CCCN(S(=O)(=O)c2ccccc2)C1 (stereo unspecified)
  i	-8	1.1	38	98	0.5	-7
[36] Cc1ccc2c(N)c(C#N)sc2n1
  i	6	1	157	100	-2.3	49
[37] Cc1cc(C(=O)CN2C(=O)NC(CC(C)C)C2=O)c(C)n1-c1ccccc1F (stereo unspecified)
  i	-2	0.85	127	101	/	-14
[38] O=C(NC1CCCCCC1)C1CCN(S(=O)(=O)c2cnc[nH]2)CC1
  i	3	1.1	/	99	/	/
[39] COc1nc(N=C(N)N)nc2c(C)cccc12
  /	8	/	94	97	-0.5	-2
[40] CC(OC(=O)c1ccco1)C(=O)NC1CCCCC1 (stereo unspecified)
  i	-12	0.99	/	96	-1.2	/
[41] CC(=O)N(C)c1ccc(NC(=O)c2cnn(C)c2)cc1
  i	-10	1	125	104	-0.5	-16
[42] Cc1cc(=O)oc2ccc(OC(C)C(=O)O)cc12 (stereo unspecified)
  i	0	0.99	72	100	0.5	20
[43] COCCCN1C(=O)CC(C(=O)OC)=C1C
  i	5	0.96	91	103	/	-30
[44] COc1ccc(C)cc1N(CC(=O)N/N=C/c1ccc2c(c1)OCO2)S(C)(=O)=O
  i	-10	0.93	89	109	/	-7
[45] COn1c(C)c(C(C)=O)c2c3nonc3ccc21
  i	-4	0.99	105	101	-1.6	12
[46] O=C(COC(=O)/C=C/c1ccco1)Nc1ccc(F)cc1Cl
  i	-1	1.1	/	98	/	/
[47] C=C(C)c1cccc(C(C)(C)NC(=O)N2CCN(c3ccc(OC)cc3)CC2)c1
  i	-11	1.1	125	110	-1.1	-14
[48] Cc1cccc(OCCn2cnc(Cl)c2Cl)c1
  i	/	1	/	102	/	/
[49] CC1CCN(C(=O)CCCC(=O)O)CC1
  /	8	/	141	58	-2.5	54
[50] O=C1C2C3c4ccccc4C(c4ccccc43)C2C(=O)N1c1cccnc1 (stereo unspecified)
  i	2	0.95	111	24*	-1.6	6

New compounds follow
Below each SMILES – HSV replic up	PKD1 kinase inh	HSV replic up primary fold	Insulin prom inh cell count	RGS16-Gao	GALR2 agonist	Insulin prom inh
[51] O=[N+]([O-])c1ccc(-c2ccc(/C=N/Nc3nc(NCc4ccccc4)nc(N4CCOCC4)n3)o2)cc1
  i	0	1.2	95	109	/	-200
[52] Cn1nc(-c2ccccc2)c(C#N)c1Sc1cccc(Cl)c1
  i	2	1.1	73	114	-1.3	48
[53] CC(=O)CSc1ncnc2c1oc1ccccc12
  i	-7	1.1	80	105	1.2	36
[54] NC(=O)CSc1nnc(COc2ccccc2)n1N
  i	/	0.97	/	99	/	/
[55] Nc1cccc(/C=C/c2ccncc2)c1
  i	/	1	/	98	/	/
[56] CCCc1nnc(NC(=O)Cn2c(=O)oc3cc(Br)ccc32)s1
  i	-2	0.89	97	101	-2.3	-64
[57] CCC1(C)OC(=O)NN(c2ccc(C)cc2)C1(C)O (stereo unspecified)
  i	-3	1	84	105	-2.2	6
[58] CCOC(=O)C1CCN(C(=O)C2CCN(S(=O)(=O)N3CCCC3)CC2)CC1
  i	-10	0.83	97	107	0.8	31
[59] CCN(CC)c1nc2nonc2nc1N(CC)CC
  i	-4	1.1	118	97	-1.7	-7
[60] CC(=O)NC1(C(Cl)(Cl)Cl)Oc2ccccc2O1
  i	-7	0.73	102	101	-0.9	-48
[61] CCOC(=O)C(NC(=O)Nc1ccc(Cl)cn1)(Oc1ccccc1)C(F)(F)F (stereo unspecified)
  i	7	0.95	86	93	-0.2	13
[62] O=S(=O)(c1cccs1)N1CN(Cc2cccs2)c2nc3ccccc3nc21
  i	-14	1.1	90	107	0.3	0
[63] O=C(CSc1ccc2ccccc2c1)NC1CCCc2ccccc21 (stereo unspecified)
  i	6	1	127	102	-0.6	-27
[64] Cn1c(=O)c2c(SCc3cccnc3)nc(CC(C)(C)C)nc2n(C)c1=O
  i	-2	0.77	/	100	1.6	/
[65] Cc1nccn1CCCNC(=O)CC1C(=O)NCCN1Cc1ccc(Cl)c(F)c1 (stereo unspecified)
  i	0	0.93	56	113	/	5
[66] NC(=O)C1(N2CCCCC2)CCN(C(=S)NCCc2ccccc2)CC1
  i	-1	0.9	190	116	/	-7
[67] O=C(NCc1ccco1)c1ccc(Br)c(S(=O)(=O)N2CCCCC2)c1
  i	28	0.79	119	72	-2.6	27
[68] COc1ccccc1/C=C/C(=O)/C=C/c1ccccc1O
  i	/	0.57	/	102	/	/
[69] CC(=O)CCc1c(C)c2cccc(C)c2[nH]c1=O
  i	-2	0.88	/	103	-1.3	/
[70] CCC(=O)Nc1ccc(C(=O)CSc2nnc(-c3ccccc3F)n2C2CC2)cc1
  i	-7	0.93	/	114	-0.1	/
[71] C=C(C)c1cccc(C(C)(C)NC(=O)N2CCN(C)CC2)c1
  i	-3	1	120	105	-1.8	-22
[72] O=C(CN1C(=O)/C(=C\c2cccc(Cl)c2)Oc2ccccc21)N1CCN(c2ccccn2)CC1
  i	-2	0.82	189	115	/	-45
[73] O=S(=O)(NCCOCCNS(=O)(=O)c1ccccc1)c1ccccc1
  /	-4	/	81	100	-2.4	6
[74] COc1ccc(NC(=O)[C@@H](NC(=O)c2ccccc2)C(C)C)cc1S(=O)(=O)N1CCCCC1
  i	-20	0.89	63	161	-0.4	7
[75] Cc1cc(C)cc(NC(=O)CN(C)S(=O)(=O)c2cnc[nH]2)c1
  i	-3	1.1	112	104	-1.1	33
[76] CCOC(=O)N1CC(=O)Nc2ccc(Br)cc2C1c1ccccc1 (stereo unspecified)
  i	/	0.9	/	98	/	/
[77] O=C(COC(=O)COc1ccccc1)Nc1cccc([N+](=O)[O-])c1
  /	6	/	64	29	/	57
[78] CCO[C@H]1OC(C(=O)Nc2ccccc2)=C[C@@H](c2csc3ccccc23)[C@@H]1CCCO
  i	-2	0.88	/	101	/	/
[79] COC(=O)Cn1c(C(=O)N2CCCC2)cc2c1C[C@H]1CN(C(=O)c3ccccc3)[C@@](Cc3ccc(F)cc3)(C(=O)OC)[C@@H]21
  i	-4	0.99	79	111	-0.2	19
[80] O=C(CN1CCN(Cc2ccccc2)CC1)c1ccccc1
  i	-7	0.93	96	93	-1.5	-3
[81] O=[N+]([O-])c1cc(-c2ncccn2)c([N+](=O)[O-])s1
  i	5	0.99	33	102	-0.9	-119
[82] COc1ccc(OC)c(-c2nc(CN(C)C(C)c3ccncn3)c(C)o2)c1 (stereo unspecified)
  i	3	0.98	42	96	/	-80
[83] COC(=O)c1scc(C)c1N1C(=O)c2ccccc2C1=O
  i	/	0.99	/	97	/	/
[84] CCc1ccc2nc(Nc3ncc(C(C)=O)c(C)n3)nc(C)c2c1
  i	/	0.91	/	82	/	/
[85] c1ccc2c(c1)ncn2-c1ccc(-c2ccnc(-c3ccncc3)n2)cc1
  /	-3	/	107	100	-2.5	-67
[86] CCOc1ccc2nc(NC(=O)C(NS(=O)(=O)c3cccs3)C(C)C)sc2c1 (stereo unspecified)
  i	-9	0.94	50	106	-1.4	-26
[87] COc1cccc(-c2nc(OC(C)C)c3ccccc3n2)c1
  i	-4	0.95	179	103	0.2	-49
[88] CCCCCn1cnc2c(=S)nc(N)[nH]c21
  i	/	0.84	/	100	/	/
[89] Cc1nc2ccc(S(=O)(=O)c3ccc4nc(C)[nH]c4c3)cc2[nH]1
  i	3	0.94	53	108	-1.0	13
[90] CCOC(=O)CN/C=C(\C#N)c1ccccc1
  i	-8	0.92	/	106	-0.2	/

5 entries from above, sorted by molar mass, descending:
Below each SMILES – HSV replic up	PKD1 kinase inh	HSV replic up primary fold	Insulin prom inh cell count	RGS16-Gao	GALR2 agonist	Insulin prom inh
[51] O=[N+]([O-])c1ccc(-c2ccc(/C=N/Nc3nc(NCc4ccccc4)nc(N4CCOCC4)n3)o2)cc1
  i	0	1.2	95	109	/	-200
[7] S=C(NCCC(c1ccccc1)c1ccccc1)Nc1ccccc1Cl
  i	-3	0.68	1	96	-0.1	-158
[68] COc1ccccc1/C=C/C(=O)/C=C/c1ccccc1O
  i	/	0.57	/	102	/	/
[28] Nc1[nH]c(=O)[nH]c(=O)c1N=Nc1cccc(Cl)c1
  i	-1	0.78	/	96	/	/
[57] CCC1(C)OC(=O)NN(c2ccc(C)cc2)C1(C)O (stereo unspecified)
  i	-3	1	84	105	-2.2	6
